Rango complex inh – Rango-importin beta binding inhibition | Rango CFP/YFP FRET sensor + importin beta, 45 min | Q14974 | hit rate 0.031% among 340,000 | Potency, µM (top dose mostly 92.2 µM), inactives show at the top dose inhibition of complex formation; active = rising FRET ratio curve, often small or poorly fitted; inconclusive = mostly compound fluorescence or quenching in the first reads; inactive = flat curves in all reads;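 also: potency is read from the fitted curve at half-maximal effect; 0% = DMSO wells and 100% = buffer wells lacking importin beta; nearly all actives have a fitted effect of over 15% in size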
Target sequence (Q14974 whole entry, looked up): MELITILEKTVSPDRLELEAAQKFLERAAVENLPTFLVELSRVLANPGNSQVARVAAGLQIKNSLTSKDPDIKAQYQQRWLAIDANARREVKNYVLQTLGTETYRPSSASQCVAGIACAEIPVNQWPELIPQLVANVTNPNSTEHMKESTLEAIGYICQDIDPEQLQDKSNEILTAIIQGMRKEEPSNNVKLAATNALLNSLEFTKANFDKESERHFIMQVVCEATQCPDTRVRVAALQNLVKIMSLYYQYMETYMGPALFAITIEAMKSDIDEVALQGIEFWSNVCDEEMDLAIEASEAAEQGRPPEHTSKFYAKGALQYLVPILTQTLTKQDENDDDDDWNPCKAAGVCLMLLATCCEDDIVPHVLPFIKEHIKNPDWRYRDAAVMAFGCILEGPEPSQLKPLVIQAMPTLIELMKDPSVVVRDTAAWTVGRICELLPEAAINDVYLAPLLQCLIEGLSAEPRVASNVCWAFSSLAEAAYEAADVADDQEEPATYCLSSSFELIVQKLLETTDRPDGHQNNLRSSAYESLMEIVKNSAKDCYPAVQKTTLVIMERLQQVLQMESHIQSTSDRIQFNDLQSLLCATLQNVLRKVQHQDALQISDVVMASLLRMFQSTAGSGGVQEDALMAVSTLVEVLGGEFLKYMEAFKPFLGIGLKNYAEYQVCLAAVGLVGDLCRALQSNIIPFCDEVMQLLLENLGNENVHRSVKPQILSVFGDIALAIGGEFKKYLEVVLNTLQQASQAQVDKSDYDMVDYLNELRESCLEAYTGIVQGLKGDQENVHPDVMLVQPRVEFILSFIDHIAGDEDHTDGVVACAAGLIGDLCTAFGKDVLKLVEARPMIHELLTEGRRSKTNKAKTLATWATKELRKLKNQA
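FRET biosensor (snurportin 1 IBB flanked by EYFP and cerulean), 50 nM, with compound 5 min, then 0.125 microM importin beta in PBS, 1 mM DTT, 0.02% Tween-20, 0.1% BSA. CFP/YFP ratio read after 45 min at room temperature; pre-read flags interference.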
Rango release inh – inhibition of RanGTP-driven Rango-importin beta dissociation; Biochemical FRET Rango-importin beta, RanGTP-induced dissociation; Potency, µM (titrated, usually from 46.1 µM), for the others: top-dose activity change, negative = inhibition; hit rate 0.071% among 340,000; AID 540253; active means falling FRET ratio curve, often poorly fitted, with flat reads before Ran was added; inconclusive means other falling curves, or compound fluorescence or quenching; inactive means flat or rising ratio curve;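 also: potency is read from the fitted curve at half-maximal effect; % of control where 0% means no effect; nearly all actives have a fitted effect of over 45% in size; -100% = wells without RanGTP and RCC1; the record marks most hits as doubtful in a second field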
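FRET read at 45 min, room temperature: inhibitors block the CFP/YFP signal rise when RanGTP (0.6 uM Ran, 2 mM GTP, 0.2 uM RCC1) frees Rango (0.1 uM) from importin beta (0.25 uM). Pre-read after 5 min compound exposure flags interference.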
miR-21 reporter – raises the signal of a miR-21 reporter; HeLa miR-21 FLuc reporter, luciferase, 48 h; Potency, µM (titrated, usually from 38.3 µM), without a hit: at the highest dose reporter change, positive = more light; 340,000 tested, under 10 active; active = well fitted rising curve with a large enough effect; inconclusive = small, poorly fitted or top-dose-only effect; inactive = no such curve, though single readings can be large or run the other way;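 also: % of control where 0% means no effect; miR-21 action dims this reporter so a rising signal means less miR-21 action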
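HeLa miR-21-FLuc reporter line, endogenous miR-21; 2000 cells/well in DMEM/10% FBS; compound titration up to ~40uM final, 48 h, 37 degree Celsius; luciferase detection reagent, 15 min lysis, CCD luminescence.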
GLA inh pH 4.5 – blocks human alpha-galactosidase A at pH 4.5 | AID 1467 | purified enzyme, 4-MU-alpha-Gal fluorescence, pH 4.5 | 230,000 tested, under 10 active | activity change, negative = inhibition, % at 105 µM | P06280; inconclusive = small, poorly fitted or top-dose-only inhibition, or a rising curve; inactive = flat fitted curve, though single readings scatter; no compound was filed as active;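 also: 0% = full activity with enzyme and -100% = basal without enzyme; dose as in the result columns while the protocol names 77 µM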
The depositor's hits bear a star; ? = inconclusive; · = not tested or not shown. Not all compounds are listed (hit frequency here may not be typical).

The first two entries, to show the layout:
Every second line gives: Rango release inh	Rango complex inh	GLA inh pH 4.5	miR-21 reporter
> CCOC(=O)c1cc(-c2nnc(-c3ccc(Cl)cc3)o2)c(C)nc1C
    -11%	0.4%	1	0%
> Cc1cccc(C)c1OCCCCn1cnc2ccccc2c1=O
    1%	-2.7%	-12	-1%

All compounds of this part (from the top)
Every second line gives: Rango release inh	Rango complex inh	GLA inh pH 4.5	miR-21 reporter
> CCOC(=O)c1cc(-c2nnc(-c3ccc(Cl)cc3)o2)c(C)nc1C
    -11%	0.4%	1	0%
> Cc1cccc(C)c1OCCCCn1cnc2ccccc2c1=O
    1%	-2.7%	-12	-1%
> O=C1OC[C@H]2CCCC[C@@H](CO)ON12
    11%	3.6%	·	·
> COc1ccc(-c2cc(C)no2)cc1S(=O)(=O)N1CCCN(Cc2ccc(F)cc2)C1
    -1%	0.1%	·	-2%
> CCN1CCN(C(=O)CN(C)S(=O)(=O)c2cc(C)ccc2OC)CC1
    2%	0.0%	3	-4%
> CC(=O)Nc1cccc(Oc2ncnc3scc(-c4ccc(C(C)C)cc4)c23)c1
    16%	0.8%	-3	27%
> COc1cccc(C(=O)Nc2cc3c(cc2N2CCCC2)n(C)c(=O)n3C)c1
    -9%	-0.1%	·	-6%
> COc1cc(/C=N/NC(N)=S)cc(Br)c1OCc1ccccc1F
    14%	2.1%	-1	24%
> CCOC(=O)C1=C(COC(=O)CCOc2cccc(C)c2)NC(=O)NC1C (stereo not given)
    0%	0.7%	·	·
> O=C(NCc1ccncc1)Nc1cccc(Cl)c1
    7%	-3.6%	3	-9%
> COc1nc(N(C)C)nc(N(C)c2cc(Cl)cc(Cl)c2)n1
    1%	-2.8%	·	1%
> N#Cc1ccc(CN2C(=O)NC3(CCCCCC3)C2=O)cc1
    -2%	0.3%	·	4%
> CCSc1nnc(NC(=O)CCc2ccccc2)s1
    1%	-2.1%	0	-17%
> COc1ccc(C)c2sc(N3CCCC3)nc12
    -7%	1.8%	10	-8%
> CCCS(=O)(=O)Nc1cc(C(F)(F)F)ccc1OCCOC
    -14%	2.8%	-2	-2%
> CC1CCN(C(=O)Cn2nc(C(F)(F)F)c3c2CCCC3)CC1
    25%	-1.5%	4	-6%
> COc1ccc(CC(=O)NNC(=O)CSc2ccc(C)cc2)cc1
    -7%	0.3%	6	-3%
> CCOC(=O)CNC(=O)CSc1ccc2nnc(-c3ccc(F)cc3)n2n1
    11%	4.9%	-15	7%
> CC(=O)NNC(=O)CSc1nnc(-c2ccccc2)c(-c2ccccc2)n1
    1%	0.3%	·	1%
> Cc1noc(C)c1S(=O)(=O)N1CCC(C(=O)NCCc2ccc(S(N)(=O)=O)cc2)CC1
    -4%	2.8%	-4	-2%
> Cc1n[nH]c(C)c1CN(C)C(=O)c1cc(COc2ccc(F)c(F)c2)on1
    -3%	2.8%	·	-15%
> Cc1ccc(C)n1-n1cnc2scc(-c3cccs3)c2c1=O
    -29%	-3.4%	-5	-12%
> CC1CN(c2ccc(Oc3ccccc3)cc2)c2nc3c(c(=O)[nH]c(=O)n3C)n2C1 (stereo not given)
    -21%	-0.7%	6	1%
> Cc1ccc(N=C2SCCCN2C(=O)c2ccco2)cc1Cl
    -8%	-3.3%	-1	-18%
> COc1ccc(CNS(=O)(=O)c2ccc3c(c2)NC(=O)C(C)S3)cc1 (stereo not given)
    -4%	-0.1%	·	6%
> O=C(Cn1nc2ccccc2n1)N/N=C/c1cc(Cl)cc([N+](=O)[O-])c1O
    2%	?	4	-2%
> FC(F)Oc1ccccc1C1CC(c2ccc(Br)s2)Nc2ncnn21 (stereo not given)
    -7%	0.1%	-13	15%
> O=C(COC(=O)c1c(F)cccc1F)c1ccc[nH]1
    ?	0.5%	2	0%
> O=C(NCc1ccco1)c1cccnc1-c1nc2ccccc2s1
    ?	-0.9%	10	-5%
> Cc1cccc(NC(=O)CSc2nnc(-c3ccccc3)n2N)c1C
    1%	3.6%	8	0%
> CC(C)(C)c1ccc(C(=O)NN2CCOCC2)cc1
    5%	1.1%	·	-3%
> CCc1ccc(CCC(=O)Nc2ncc(Cc3ccccc3Cl)s2)o1
    5%	1.0%	5	4%
> COc1cc(CCC(=O)OCC(=O)Nc2ccccc2C(C)C)cc(OC)c1OC
    21%	-2.5%	-2	1%
> NC(=O)[C@@H]1CC2(CC(c3cccc(NC(=O)COc4ccc(Cl)cc4)c3)=NO2)CN1C(=O)c1ccccc1 (stereo not given in full)
    -16%	-0.6%	-3	12%
> CN(c1ccccc1)c1nc(N)c(C#N)c(CC#N)c1C#N
    2%	3.4%	-3	-23%
> O=C(Cn1c(C(F)(F)F)nc2ccccc21)Nc1ccccc1C(=O)O
    0%	4.4%	-2	23%
> Cc1cc(C)c2nc(C)cc(N/N=C/c3ccc(O)cc3)c2c1
    15µM*	?	·	?
> CSc1nsc(SCC(=O)Nc2ccc(F)cc2)n1
    -1%	1.9%	·	-23%
> OCC1(CCc2ccccc2)CCN(Cc2ccc3nsnc3c2)CC1
    33%	-1.7%	-7	-7%
> COc1ccc(S(=O)(=O)Nc2ccccc2C(=O)N2CCOCC2)cc1Cl
    12%	1.0%	·	-3%

Record cards, as listed above. Values in the order: Rango release inh, Rango complex inh, GLA inh pH 4.5, miR-21 reporter
Results for `NC(=O)[C@@H]1CC2(CC(c3cccc(NC(=O)COc4ccc(Cl)cc4)c3)=NO2)CN1C(=O)c1ccccc1` (stereo not given in full) = -16%, -0.6%, -3, 12%
Results for `COc1ccc(S(=O)(=O)Nc2ccccc2C(=O)N2CCOCC2)cc1Cl` = 12%, 1.0%, ·, -3%
Results for `CCc1ccc(CCC(=O)Nc2ncc(Cc3ccccc3Cl)s2)o1` = 5%, 1.0%, 5, 4%
Results for `OCC1(CCc2ccccc2)CCN(Cc2ccc3nsnc3c2)CC1` = 33%, -1.7%, -7, -7%
Results for `O=C(Cn1c(C(F)(F)F)nc2ccccc21)Nc1ccccc1C(=O)O` = 0%, 4.4%, -2, 23%

(continued)
Every second line gives: Rango release inh	Rango complex inh	GLA inh pH 4.5	miR-21 reporter
> O=C1COc2ccc(C(=O)c3ccccc3C(=O)NCc3ccco3)cc2N1
    0%	-1.0%	-27	-4%
> Cc1cc(-c2nnc(SCC(=O)Nc3nc(-c4ccccc4)cs3)o2)no1
    1%	2.9%	-6	-9%
> Cc1nc(-c2coc3cc(OCC(=O)O)ccc3c2=O)cs1
    2%	-2.4%	-7	30%
> CCCCCNC(=O)C(=O)C1C(=O)Nc2ccccc21 (stereo not given)
    15%	1.7%	-3	8%
> Cc1cc(C)cc(NC(=S)NC2CC3CCCC(C2)N3C2CCCC2)c1 (stereo not given)
    14%	-1.6%	2	-2%
> Cc1ccc(SCC(=O)NNC(=O)C2CCCCC2)cc1
    6%	2.7%	-9	-5%
> O=C(c1ccc(-c2ccccc2)cc1)N1CCN(c2ccccn2)CC1
    -25%	6.8%	-4	5%
> CC(=O)c1cccc(NC(=O)NC(C)c2ccc3c(c2)OCO3)c1 (stereo not given)
    -17%	-0.2%	·	0%
> COc1ccc(NC(C)C(=O)Nc2ccc(C#N)cc2)cc1Cl (stereo not given)
    4%	2.9%	1	2%
> CCOc1ccc(S(=O)(=O)Nc2ccc(C(=O)N3CC(C)OC(C)C3)cc2)cc1 (stereo not given)
    0%	-4.9%	·	·
> CCCCn1c(Cc2ccccc2)nnc1SCC(=O)Nc1cc(C)on1
    -1%	-1.2%	-3	-1%
> S=C(Nc1ccc2cn[nH]c2c1)Nc1ccc(Cl)cc1Cl
    -6%	0.0%	5	-19%
> CC1=NOC(=O)/C1=C\c1ccc(-c2ccc(Br)cc2)o1
    -24%	?	3	?
> O=C(CSc1nc2cc(C(=O)O)ccc2c(=O)n1-c1ccc(F)cc1)Nc1ccc(F)c(F)c1F
    -8%	0.3%	·	-2%
> COCCn1c(Br)nc2c1c(=O)n(C)c(=O)n2C
    6%	-2.8%	-2	7%
> CC(OC(=O)Cc1ccc(F)cc1)C(=O)NCc1ccc2c(c1)OCO2 (stereo not given)
    -2%	?	·	·
> CCCCc1cc(=O)oc2c(C)c(OCC(=O)NCc3ccccn3)ccc12
    0%	1.6%	·	-3%
> CN(CC(=O)Nc1ccc(F)c(F)c1F)C(=O)c1nn(Cc2ccccc2)c(=O)c2ccccc12
    -1%	7.5%	·	·
> CCOc1ccc(-c2ccc(C=O)o2)c([N+](=O)[O-])c1
    0%	-0.1%	-3	-24%
> COc1ccc2ccccc2c1C1NC(=O)c2ccccc2N1 (stereo not given)
    19%	-6.2%	·	·
> CCN(Cc1ccccc1)C(=O)CCc1nc(-c2ccc(C)cc2)no1
    -12%	0.0%	-4	-4%
> O=S(=O)(Nc1cc(Cl)ccc1-n1cncn1)c1ccc(F)cc1
    29%	2.6%	·	·
> CC(=O)C1=C(O)C(=O)N(Cc2cccnc2)C1c1ccccc1Cl (stereo not given)
    -7%	-3.9%	-10	-6%
> N#Cc1ccc(Oc2ncccn2)cc1
    0%	-0.7%	·	·
> COc1ccc(NC(=O)CN(C)C(=O)c2ccc(S(=O)(=O)Nc3ccccc3C)cc2)cc1
    13%	?	·	·
> Cc1ccc(C(=O)CSc2nc(C(C)C)nc3ccccc23)cc1
    1%	-4.8%	-5	1%
> O=C(NCCC(=O)N1CCN(c2ccc(F)cc2)CC1)c1ccco1
    10%	-4.7%	·	·
> CNC(=O)NC(=O)COC(=O)c1n[nH]c2ccccc12
    -10%	1.3%	-3	-5%
> COc1ccc(NC(=O)COC(=O)CCCc2c[nH]c3ccccc23)cc1OC
    6%	2.6%	-10	-2%
> O=C(CSc1nnc(-c2cccnc2)n1CCN1CCCCC1)Nc1cccc(Cl)c1
    1%	-2.9%	6	6%
> COCCNC(=O)C1CC2Cn3c(nc4cc(Cl)c(Cl)cc43)C2N1C (stereo not given)
    0%	-1.6%	9	-1%
> Cc1cccc(NC(=O)c2nc[nH]c2C(=O)N[C@H](C)c2ccccc2)c1
    9%	2.4%	·	·
> CCOc1cc(C#N)c(NC(=O)c2cccnc2)cc1OCC
    -11%	-0.1%	5	12%
> O=C(O)CN1C(=O)/C(=C2\C(=O)N(Cc3ccccc3Cl)c3ccccc32)SC1=S
    1%	1.0%	·	-2%
> Cc1[nH]n(-c2ccccc2)c(=O)c1C1(C(F)(F)F)C(=O)N(c2ccccc2)C2=C1C(=O)CC(C)(C)C2 (stereo not given)
    -17%	-1.6%	-4	-3%
> CCOC(=O)Cc1csc(SCc2nc3ccccc3c(=O)[nH]2)n1
    1%	-2.9%	-2	-3%
> COc1cc(OC)cc(C(=O)NCC2CCCN(C(=O)c3csc(C(C)C)n3)C2)c1 (stereo not given)
    5%	4.0%	·	1%
> COc1ccc(-c2ccc(C#N)c(OC(=O)c3c(Cl)cccc3Cl)n2)cc1
    -6%	-0.6%	10	-2%
> Cc1cccc(/C=N/NC(=O)c2cc(Br)ccc2OCc2ccccc2)n1
    -2%	-1.7%	·	-3%
> CCCCN1CCC(CN2C(=O)C(=O)NC[C@@H]2Cc2ccccc2)CC1
    -19%	7.7%	·	·
> Nc1ccc(C(=O)OCc2nc3ccccc3s2)cc1
    2%	-2.0%	11	-62%
> O=C(NC1(C(=O)NC2CCCC2)CCCCC1)c1ccc2c(c1)OCO2
    1%	-1.2%	2	-2%
> CCOC(=O)C(C)Oc1cccc2c(=O)n(CC(=O)N3CCc4ccccc43)ccc12 (stereo not given)
    0%	-0.7%	-1	-3%
> COc1cccc(CN2C[C@]34C=C[C@@H](C[C@@H]3S2(=O)=O)O4)c1
    38%	0.8%	3	4%
> Cc1ccc(OCC(=O)N2CCC(C)CC2)c([N+](=O)[O-])n1
    14%	2.5%	·	·
> O=S(=O)(Nc1ccc2oc(-c3ccccc3)nc2c1)c1ccccc1
    -17%	-6.4%	0	-60%
> CC(=O)NCCCc1c[nH]c2ccc(Cl)cc12
    -13%	-3.1%	3	-16%
> O=S(=O)(NC1CCCC1)c1ccc(S(=O)(=O)NC2CCCC2)cc1
    -14%	-0.7%	-1	-4%

Bioassay records from PubChem BioAssay.
